Lassa entry inh: blocks Lassa virus binding to or entry into cells; Lassa virus pseudotype entry inhibition, cell reporter; control for the full effect not named in the record; 1.2% of 300,000 active; Potency, µM (titrated, usually from 37.9 µM), inactives show at the top dose activity change, negative = inhibition, hits mostly inhibitors; active means well fitted inhibition curve with a large enough effect; inconclusive means small, poorly fitted or top-dose-only effect, or effect the other way; inactive means flat fitted curve, though single readings scatter; tested in HEK293 cells; further: on the % scale 0 is the no-effect control and ±100 the full control effect; nearly all actives have a fitted effect of over 50% in size; luciferase read-out
SARS PLP yeast: inhibitors of SARS-CoV papain-like protease in yeast | S. cerevisiae expressing SARS-CoV PLpro, growth rescue; control for the full effect not named in the record | Potency, µM (titrated, usually from 32.9 µM), inactives show at the highest dose activity, positive = growth rescue | 0.19% of 330,000 active; active means well fitted rising curve with a large enough effect; inconclusive means small, poorly fitted or top-dose-only effect; inactive means no such curve, though single readings can be large or run the other way; further: 0% is about no effect; nearly all actives have a fitted effect of over 55% in size; growth read by luminescence after 48 h
NS1 function inh: influenza NS1 inhibition; Potency, µM (top dose mostly 46.1 µM), for the others: at the highest dose activity, positive = more growth; S. cerevisiae slowed by influenza A NS1, growth recovery by OD600; 0.4% of 270,000 active; active means well fitted rising curve with a large enough effect; inconclusive means small, poorly fitted or top-dose-only effect; inactive means no such curve, though single readings can be large or run the other way; further: nearly all actives have a fitted effect of over 50% in size
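In this qHTS, NS1 from influenza A is expressed in budding yeast, where it slows growth. Cells are switched from glucose to 2% galactose medium (pH 6.0, -URA), treated with compound, and growth recovery is read at OD600.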
RE007 growth inh: less growth of the S. pombe RE007 Vpr strain; S. pombe RE007 Vpr strain, BacTiter-Glo ATP luminescence, 24 h; control for the full effect not named in the record; Potency, µM (doses to about 92.2 µM), for the others: top-dose activity change, negative = less growth; 0.21% of 360,000 active; AID 651644; active = well fitted falling curve with a large enough effect; inconclusive = small, poorly fitted or top-dose-only effect; inactive = no such curve, though single readings can be large or run the other way;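 further: on the % scale 0 is the no-effect control and ±100 the full control effect; nearly all actives have a fitted effect of over 50% in size; the assay follows cell death caused by Vpr and the record does not say whether a fall means rescue or toxicity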
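Fission yeast RE007 carrying one integrated HIV-1 vpr copy, seeded at OD 0.01 in PMG+AL medium with 23 nL pinned compound. Grown 24 h at 30 degrees; viability read by BacTiter-Glo luminescence after 5 min.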
Cruzain inh Det: cruzain (T. cruzi) inhibition with detergent | 0.43% of 200,000 active | purified cruzain, Z-FR-AMC fluorescence, 0.01% Triton | P25779 | Potency, µM, inactives show max response, negative = inhibition, most hits filed as inhibitors;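 further: plate controls were neutral wells for no effect and buffer without enzyme for full effect; nearly all actives have a fitted effect of over 40% in size; top concentration of the series not given in the record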
Target sequence (P25779 123-467 limits assumed): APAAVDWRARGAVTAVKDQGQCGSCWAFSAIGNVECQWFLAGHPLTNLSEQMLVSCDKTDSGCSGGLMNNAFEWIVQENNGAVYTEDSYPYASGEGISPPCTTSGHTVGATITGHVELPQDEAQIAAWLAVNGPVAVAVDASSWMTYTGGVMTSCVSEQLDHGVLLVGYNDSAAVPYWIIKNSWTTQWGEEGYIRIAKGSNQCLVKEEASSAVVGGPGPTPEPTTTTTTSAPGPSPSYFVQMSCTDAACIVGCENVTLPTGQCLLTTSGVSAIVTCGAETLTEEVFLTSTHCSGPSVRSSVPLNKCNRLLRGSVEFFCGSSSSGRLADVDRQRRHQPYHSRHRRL
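Compounds were screened in titration against cruzain (1.5 nM) with 0.01% Triton X-100 to counter colloidal aggregation. Activity was the AMC fluorescence increase over 60 s after adding 2 uM Z-FR-AMC at pH 5.5.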
StopGo reporter: lowers the luciferase signal of an FMDV 2A StopGo reporter | AID 1159524 | human cells with a luciferase reporter of 2A StopGo recoding; control for the full effect not named in the record | 1.2% of 410,000 active | Potency, µM (titrated, usually from 57.9 µM), for inactives: at the top dose signal change, negative = less light; active = well fitted falling curve with a large enough effect; inconclusive = small, poorly fitted or top-dose-only effect; inactive = no such curve, though single readings can be large or run the other way; tested in HEK293T cells; further: on the % scale 0 is the no-effect control and ±100 the full control effect; nearly all actives have a fitted effect of over 45% in size; luciferase light after 4 h
Marburg entry inh: inhibitors of Marburg virus binding or cell entry | 1.8% of 300,000 active | Marburg virus pseudotyped entry inhibition, cell reporter; control for the full effect not named in the record; about a third of the inactives were read at about 46 µM | Potency, µM (titrated, usually from 37.8 µM), inactives show top-dose activity change, negative = inhibition, most hits filed as inhibitors; active = well fitted inhibition curve with a large enough effect; inconclusive = small, poorly fitted or top-dose-only effect, or effect the other way; inactive = flat fitted curve, though single readings scatter; tested in HEK293 cells; about a fifth of its hits are not listed in these tables; further: on the % scale 0 is the no-effect control and ±100 the full control effect; luciferase read-out
Cruzain noTriton: cruzain (T. cruzi) inhibition without detergent | P25779 | purified cruzain, Z-FR-AMC fluorescence, no detergent | Potency, µM, for inactives: max response, negative = inhibition, most hits filed as inhibitors | 2.3% of 200,000 active | AID 1476;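 further: plate controls were enzyme without inhibitor for no effect and buffer without enzyme for full effect; nearly all actives have a fitted effect of over 40% in size; top concentration of the series not given in the record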
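Purified cruzain at 1.5 nM, pre-incubated 15 min with compound at room temperature in 100 mM sodium acetate pH 5.5, 5 mM DTT, 0.00005% Triton X-100. Reaction started with 2 uM Z-FR-AMC; AMC fluorescence increase over 60 s gives rate.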
* = called active by the depositor; ? = inconclusive; · = not tested or not shown; [ ] = dose if it differs, or a comment. Unless noted, the call rests on the fitted dose curve; in most records, active means well fitted curve in the direction sought with a large enough effect; inconclusive means small, poorly fitted or top-dose-only effect, or another doubt; inactive means no such curve, though single readings can be large; an effect the other way counts as inactive or inconclusive. Potency means the concentration at half of the fitted maximal effect.

SMILES	Lassa entry inh	SARS PLP yeast	NS1 function inh	RE007 growth inh	Cruzain inh Det	StopGo reporter	Marburg entry inh	Cruzain noTriton
Cc1ccc2c(c1)NC(=O)C(CC(=O)NCc1ccc(F)cc1)O2 (configuration not stated)	·	1%	-1%	1%	-0.2%	1%	·	-10%
CC(C)Cn1cc(C(=O)NCc2cccs2)c2c3ccccc3n(C)c2c1=O	26%	-10%	-12%	5%	1.6%	16%	-11%	?
O=C(CN(C(=O)c1csnn1)c1cccc(F)c1)NC1CCCC1	4%	1%	16%	27%	·	2%	-5%[46.1 µM]	·
Cc1ccc(S(=O)(=O)c2nc(Nc3ccccc3)sc2Cl)cc1	-28%	-94%	-2%	0%	-10%	?	?	4%
c1ccc(-n2nnnc2-n2nnc3ccccc32)cc1	4%	-1%	-3%	-8%	-0.1%	-8%	6%	10%
Cc1ccc(Cl)cc1N1CCN(S(=O)(=O)c2ccc3c(c2)CCCN3C(=O)C2CCC2)CC1	?	·	·	·	-1.3%	0%	·	1%
CCOc1ccccc1NC(=O)N1CCC2(CC1)OCCO2	21%	4%	-1%	-8%	2.7%	7%	21%	-13%
CC(C)(C)C(=O)/C(C#N)=C/c1cccs1	?	0%	0%	5%	·	-7%	7%	·
Cc1noc(C)c1-c1nc(CS(=O)(=O)c2ccc(F)cc2)no1	·	0%	-2%	8%	·	-6%	·	·
CCCCn1c(=O)n(-c2cc(OC)ccc2OC)c(=O)c2c3c(sc21)CN(C(C)=O)CC3	·	·	·	·	-3.5%	4%	6%[46.1 µM]	?
COc1ccc(OC)c(C(=O)NC(CC(N)=O)c2ccc(N3CCC(N4CCCC4)CC3)c([N+](=O)[O-])c2)c1 (configuration not stated)	·	4%	?	4%	·	-7%	·	·
Cc1cc(C)cc(OCC(=O)Nc2nonc2-c2ccc(Br)cc2)c1	-2%[46.1 µM]	·	·	·	2.4%	-10%	30%[46.1 µM]	-1%
COc1ccc(/C=N/NC(=O)c2ccc(C)cc2)cc1CN1CCN(c2ccc(F)cc2)CC1	25%	8%	3%	-18%	0.3%	-16%	20%	-6%
CC(C)CCN(C(=O)c1ccccn1)c1c(N)n(Cc2ccccc2)c(=O)[nH]c1=O	2%[46.1 µM]	4%	·	-9%	·	2%	0%[46.1 µM]	·
COc1ccc(S(=O)(=O)N2CCc3ccccc32)cc1C(=O)OCc1c(C)noc1C	18µM*	2%	2%	49%	2.2%	-13%	3.5µM*	?
O=c1oc2ccc3ccccc3c2cc1-c1nnc(Nc2cc(C(F)(F)F)ccc2Cl)s1	14%[46.1 µM]	·	·	·	1.8%	-12%	·	-1%
CC(=O)Nc1ccc(-c2csc(N/N=C\c3ccncc3)n2)cc1	-30%	1%	3%	-11%	·	-11%	?	·
O=C(CN1C(=O)c2ccccc2C1=O)Nc1ccc(-c2nc3ccccc3o2)cc1	0%	-1%	-17%	3%	-0.8%	-11%	-3%	-5%
CC1=C/C(=N\Nc2ccccc2[N+](=O)[O-])CC(C)(C)C1	-4%[46.1 µM]	0%	-16%	1%	-4.6%	-19%	16%[46.1 µM]	-3%
Cc1cc(Nc2cccc(C(F)(F)F)c2)nc2ccc(NC(=O)c3ccc(N(C)C)cc3)cc12	3%[46.1 µM]	·	·	·	-0.9%	-14%	?	?
CCOC(=O)c1ccc(NC(=S)N2CCC(C(N)=O)(N3CCCCC3)CC2)cc1	?	0%	0%	2%	·	?	12%[46.1 µM]	·
COC(=O)CNC(c1ccccc1)c1cc(C)ccc1NS(=O)(=O)c1ccc(C)cc1 (configuration not stated)	?	-3%	-19%	12%	-4.6%	-13%	?	4%
Cc1cc(C(=O)C[N+]2(C)CCOCC2)c(C)n1-c1ccc(Br)cc1	15%[46.1 µM]	2%	·	6%	·	-10%	?	·
CNC(=O)C1C(=S)NC(N)=C(C#N)C1c1ccccc1 (configuration not stated)	8%	-6%	-103%	-14%	5.4%	?	-3%	-16%
CCN(CC(=O)Nc1c(F)cccc1F)C(=O)c1ccc(=O)n(C)n1	12%	·	·	5%	·	-18%	19%	·
CCOC(=O)c1ccc2[nH]c3c(c2c1)CCCC3NC=O (configuration not stated)	·	-12%	-10%	-3%	·	40%[activator]	·	·
CCOc1cc(CNCC(C)C)cc(Cl)c1OCc1ccccc1	·	-2%	-2%	0%	·	-27%	·	·
COc1cccc(NC(=O)Cn2cc(C=O)c3ccccc32)c1	?	2%	-8%	5%	·	-27%	?	·
NC(=O)CSC1=Nc2ccccc2C2=NC(CC(=O)NCc3cccs3)C(=O)N12 (configuration not stated)	7%	-3%	-4%	-3%	0.7%	13%	5%	-3%
CCOC(=O)C1CCN(Cc2nc3ccc(Cl)cc3n2CCO)CC1	-13%	3%	2%	5%	4.7%	-23%	0%	4%
CCCCCn1c(=S)[nH]c2cc(C(=O)N3CCCC3)ccc2c1=O	-26%	2%	·	-6%	·	-11%	1%	·
CC(=O)c1ccc(N(CC(=O)NC2CCS(=O)(=O)C2)S(=O)(=O)c2ccc(C)cc2)cc1 (configuration not stated)	11%	6%	·	-1%	·	4%	?	·
O=C(c1ccc(Cl)cc1)N1CCC(c2ccncc2)CC1	0%[46.1 µM]	·	·	·	1.7%	0%	·	22%
O=C(c1ccc2c(c1)OCO2)C1CCCN(Cc2c(F)cccc2Cl)C1 (configuration not stated)	·	3%	6%	-19%	·	?	·	·
Cc1onc(-c2ccccc2Cl)c1C(=O)NC1CCS(=O)(=O)C1 (configuration not stated)	·	6%	7%	1%	8.3%	-7%	·	-9%
CN(C)C(=O)c1cn(N(C)c2ncc(C(F)(F)F)cc2Cl)c(=O)c2ccccc12	1%	-7%	2%	-6%	-3.9%	-17%	0%	-4%
O=C(Nc1nc2c(F)cc(F)cc2s1)c1ccco1	·	-11%	-88%	0%	·	28%	·	·
Cc1ccc(-n2c(SCC(=O)Nc3cccc(S(=O)(=O)NC4=NCCCCC4)c3)nc3ccccc3c2=O)cc1	-18%	-12%	28%	6%	-4.0%	7%	-15%	-17%
CCc1nnc(NC(=O)[C@@H](NC(=O)c2ccc(OC)cc2)C(C)C)s1	18%	-2%	-4%	-1%	·	32%[activator]	15%[46.1 µM]	·
COC(=O)c1ccc(Sc2ccc(C)cc2)c(N)c1	-2%	-3%	-116%	?	-1.1%	22%	3%	-5%
Cc1cc(N2CCN(S(=O)(=O)Cc3ccccc3)CC2)n2ncnc2n1	1%	-1%	-4%	1%	-0.8%	5%	3%	0%
COc1ccccc1CNC(=O)CN(C)Cc1ccc(SC)cc1	?	-1%	2%	-29%	·	-10%	?	·
C/C(=N/NC(=O)CNC(=O)c1ccncc1)c1ccc(Cl)cc1	22%	0%	-1%	3%	·	-18%	25%	·
COc1cc(/C=N/NC(=O)C(=O)NCC2CCCO2)cc(Cl)c1O (configuration not stated)	2%[46.1 µM]	-1%	0%	-4%	·	-1%	?	·
O=C(c1ccc2c(c1)OCCO2)C1CCN(C(=O)c2ccc(F)c(F)c2)CC1	-6%	2%	-88%	4%	1.2%	-44%	-11%	1%
Cc1ccc(S(=O)(=O)c2c(N)n(/N=C/c3ccco3)c3nc4ccccc4nc23)cc1	?	0%	-47%	9%	-3.5%	-5%	?	-28%
Cc1cc(NC(=O)CCC(=O)N(Cc2ccco2)C(C(=O)NC2CCCC2)c2ccccc2)no1 (configuration not stated)	-3%[46.1 µM]	-2%	-10%	-4%	·	4%	?	·
COc1ccc(CCC(=O)OCC(=O)Nc2ccc(C)c(S(=O)(=O)N(C)C)c2)cc1	13%	-5%	-17%	3%	-13%	46%[activator]	14%	7%
COC(CNC(=O)c1ccc2nc(-c3ccccc3)c(-c3ccccc3)nc2c1)OC	?	1%	·	6%	·	0%	?	·
Cc1cc([N+](=O)[O-])ccc1NCc1ccccc1[N+](=O)[O-]	?	0%	0%	-1%	·	?	?	·
COc1ccccc1-n1nnnc1SCC(=O)Nc1cc(C)on1	4%	3%	-6%	-3%	2.0%	-20%	-15%	-2%
CN(C(=O)COC(=O)CNC(=O)c1ccccc1F)C1CCCCC1	8%	-3%	·	-2%	·	-9%	10%	·
NC(=O)c1ccccc1OCC(=O)N1CCc2ccccc2C1	-20%	1%	16%	13%	·	-15%	5%[46.1 µM]	·
O=C(CC(c1ccccc1)c1ccccc1)NCC1CCCO1 (configuration not stated)	-1%	1%	-4%	-2%	1.3%	-5%	18%	14%
COC(=O)c1cc2c(-c3ccccc3)c(C)c3ccccn3c-2c1C(=O)OC	?	-9%	-1%	11%	-1.3%	?	?	?
CC(=NNC(=S)N1CCN(C2CCCCCC2)CC1)c1ccccn1	0.28µM*	·	·	2%	·	?	?	·
Cn1cccc1Cc1nnc(SCC(=O)Nc2nc3ccccc3s2)n1CCc1ccccc1	?	-2%	?	-11%	-0.2%	-12%	-13%	5%
COCCCC1CCN(Cc2cn[nH]c2-c2cc(OC)c(OC)c(OC)c2)CC1	·	7%	0%	-7%	·	-10%	·	·
Cc1ccc(CN2CCNC(=O)C2CC(=O)N(C)C2CCCCC2)cc1 (configuration not stated)	0%	-6%	15%	2%	·	1%	-19%[46.1 µM]	·
CCn1ccnc1CN1CCN(CC(C)C)C(CCO)C1 (configuration not stated)	?	1%	3%	-13%	·	14%	-16%[46.1 µM]	·

Further results.
SMILES	Lassa entry inh	SARS PLP yeast	NS1 function inh	RE007 growth inh	Cruzain inh Det	StopGo reporter	Marburg entry inh	Cruzain noTriton
Cc1ccc(NC(=O)c2ncn(-c3ccccc3)n2)c(Cl)c1	21%[46.1 µM]	·	·	·	-1.6%	22%	?	0%
N#CC1=C(N)SC(N)=C(C#N)C1C1CC=CCC1 (configuration not stated)	18%	-10%	13%	14%	-6.7%	-9%	-5%	5%
O=C(CSc1ccc2nnc(-c3ccncc3)n2n1)Nc1nccs1	1%[46.1 µM]	2%	·	12%	·	-17%	8%[46.1 µM]	·
Clc1cccc(Cl)c1Cn1cnc(=NCc2ccco2)c2[nH]cnc21	-19%	-2%	-8%	8%	-14%	4%	?	-6%

Bioassay records deposited in PubChem BioAssay by National Center for Advancing Translational Sciences (NCATS).
